Bioassay records deposited in PubChem BioAssay by National Center for Advancing Translational Sciences (NCATS).
Six1-Eya2 blk: qHTS Assay for Inhibitors of the Six1/Eya2 Interaction | AlphaScreen GST-Six1/His-Eya2 binding, biochemical; stronger effect = lower value; control for the full effect not named in the record | activity change, % (concentration not given with the values) | Homeobox protein SIX1 (Homo sapiens) + Protein phosphatase EYA2 (Homo sapiens), … | hit rate 0.56% among 360,000; in the data active = activity change below about -65%; inconclusive = about -30% to -65%; inactive = above about -30%; further: on the % scale 0 is the no-effect control and ±100 the full control effect
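Homogeneous AlphaScreen proximity assay pairing GST-Six1 with His-tagged Eya2 (added as 5X mix: 250 nM and 500 nM) in 50 mM Tris pH 8.0, 300 mM NaCl, 1 mM TCEP. Glutathione donor and nickel acceptor beads; 1 h, 37 °C, dark.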
CtBP-E1A inh: qHTS Assay for Inhibitors of the CtBP/E1A Interaction | hit rate 0.49% among 340,000 | activity change, % (no concentration beside the values) | AID 651724, 2012 | CtBP / adenovirus E1A interaction (AlphaScreen) | AlphaScreen GST-E1A/His-CtBP binding, 1536-well; stronger effect = lower value; control for the full effect not named in the record; in the data active means activity change below about -65%; inconclusive means about -30% to -65%; inactive means above about -30%; further: on the % scale 0 is the no-effect control and ±100 the full control effect; compound concentration not given in the record
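Homogeneous bead-based format: GST-tagged E1A captured on glutathione donor beads, His-tagged CtBP on nickel acceptor beads; compounds precede bead addition by 2 h at 37 °C.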
D2 PAM: Beta-Arrestin HTS for Positive Allosteric Modulators of the Human D2 Dopamine Receptor: Potentiators | D(2) dopamine receptor (Homo sapiens), P14416 | AID 624464, 2012 | potentiation, % (test concentration not listed) | DiscoveRx D2 beta-arrestin cells, luminescence, 90 min; 100% = 57 uM dopamine signal | hit rate 0.23% among 360,000; active = potentiation of 50% or more; inconclusive = 30% to 50%; inactive = 30% or less;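 further: compound concentration not given in the record; tested on top of an EC20 dose of dopamine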
Target sequence (P14416 whole entry, looked up): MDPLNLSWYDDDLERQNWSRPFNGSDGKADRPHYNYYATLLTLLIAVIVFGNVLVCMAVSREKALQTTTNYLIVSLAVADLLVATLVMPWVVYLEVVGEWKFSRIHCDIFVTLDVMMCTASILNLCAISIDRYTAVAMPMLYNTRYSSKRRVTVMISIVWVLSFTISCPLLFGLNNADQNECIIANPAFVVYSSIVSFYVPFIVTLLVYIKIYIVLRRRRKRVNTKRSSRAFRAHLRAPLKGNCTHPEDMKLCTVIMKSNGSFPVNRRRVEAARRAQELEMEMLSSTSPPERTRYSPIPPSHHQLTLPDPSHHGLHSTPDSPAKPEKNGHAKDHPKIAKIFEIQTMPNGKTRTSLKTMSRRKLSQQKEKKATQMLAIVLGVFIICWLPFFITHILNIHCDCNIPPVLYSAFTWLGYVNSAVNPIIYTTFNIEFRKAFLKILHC
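PathHunter beta-arrestin assay in DiscoveRx D2 cells. Compounds were added with an EC20 of dopamine (50 nM final) for 90 min at 37 deg C. Luminescence was read 1 h after detection reagent, with 57 uM dopamine as the EC100 control.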
TRPML1 blocker: qHTS for Inhibitors of the Human Mucolipin Transient Receptor Potential 1 (TRPML1) | Mucolipin-1 (Homo sapiens), Q9GZU1 | TRPML1-inducible cells, Ca2+ dye fluorescence, FDSS; stronger effect = lower value; inhibition of EC80 agonist-evoked calcium signal | activity change, negative = inhibition, % (no concentration beside the values) | hit rate 0.02% among 390,000 | AID 624415, 2012; in the data active means activity change below about -50%; inconclusive means about -30% to -50%; inactive means above about -30%;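 further: stimulus is agonist 54-4 at its EC80 concentration; on the % scale 0 is the no-effect control and ±100 the full control effect; compound concentration not given in the record; the text of the record puts the active cut at -80%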
Target sequence (Q9GZU1 whole entry, looked up): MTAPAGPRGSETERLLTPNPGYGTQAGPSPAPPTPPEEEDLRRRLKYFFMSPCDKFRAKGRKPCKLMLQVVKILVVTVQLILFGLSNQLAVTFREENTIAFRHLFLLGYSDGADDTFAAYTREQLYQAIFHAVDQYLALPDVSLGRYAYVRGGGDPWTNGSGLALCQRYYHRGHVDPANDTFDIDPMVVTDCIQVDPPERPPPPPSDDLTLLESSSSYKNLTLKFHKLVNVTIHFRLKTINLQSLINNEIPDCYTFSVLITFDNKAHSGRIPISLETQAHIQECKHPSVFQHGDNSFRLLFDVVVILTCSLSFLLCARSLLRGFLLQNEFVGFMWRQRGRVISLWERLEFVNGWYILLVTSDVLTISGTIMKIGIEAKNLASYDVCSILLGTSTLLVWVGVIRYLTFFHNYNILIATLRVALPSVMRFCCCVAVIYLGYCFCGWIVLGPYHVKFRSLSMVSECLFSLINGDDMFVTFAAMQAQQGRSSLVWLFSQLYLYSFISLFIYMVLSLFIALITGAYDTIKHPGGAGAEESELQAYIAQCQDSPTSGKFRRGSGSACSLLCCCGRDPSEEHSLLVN
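Tet-induced TRPML1-DL cells loaded with Ca8 no-wash calcium dye were read kinetically on FDSS. Compound addition was followed by EC80 agonist 54-4 (4 uM final); inhibition was read over 110 s.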
TRPV1 PAM: HTS Assay for Compounds that Act as Potentiators of the Vanilloid Receptor 1. Transient receptor potential cation channel subfamily V member 1 (Homo sapiens), Q8NER1. TRPV1-expressing cells, Fluo-8 calcium influx, capsaicin EC20 potentiation; host cell line not named in the record; control for the full effect not named in the record. potentiation, % at 8.33 µM. hit rate 0.02% among 320,000. AID 540277, 2011; active means potentiation above 80%; inconclusive means 30% to 80%; inactive means below 30%; further: 0% is about no effect
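Cells expressing TRPV1 were dye-loaded with Fluo-8 and read kinetically: 10 s baseline, 3 min after compound (agonist portion), then 2 min after EC20 capsaicin (allosteric enhancer portion). Calcium-bound dye fluorescence at 480/520 nm.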
TRPML1 agonist: qHTS for Agonists of the Human Mucolipin Transient Receptor Potential 1 (TRPML1); Mucolipin-1 (Homo sapiens), Q9GZU1; TRPML1-expressing cells, Ca2+ dye fluorescence, FDSS; host cell line not named in the record; reference of the full effect not given here; activation, % (concentration not given with the values); hit rate 0.12% among 410,000; in the data active = activation above about 50%; inconclusive = about 30% to 50%; inactive = below about 30%; further: 0% is about no effect; the text of the record puts the active cut at 80%
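In this qHTS format, compounds were pin-transferred onto Ca8-dye-loaded TRPML1-DL cells induced with Tet overnight, and intracellular Ca2+ fluorescence was recorded kinetically for 110 s after a 10 s baseline. A subsequent 4uM final 54-4 (EC80) addition followed by a second 110 s read served as the antagonist phase.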
The depositor's hits bear a star; ? = inconclusive; . = not tested or not shown. Compounds were not picked by outcome (roughly 0.95% active in at least one column).

SMILES | Six1-Eya2 blk | CtBP-E1A inh | D2 PAM | TRPML1 blocker | TRPV1 PAM | TRPML1 agonist
CC1(O)CC(c2ccc(Cl)cc2)=NN1C(=O)c1ccc([N+](=O)[O-])cc1 (stereo not drawn) | -19.1 | . | -12.4 | 0.2 | -8.2 | 0.0
O=C(OCc1nc2ccsc2c(=O)[nH]1)c1ccc(Cl)nc1 | -1.0 | 0.5 | -10.2 | 5.6 | 13.1 | -0.6
O=C(O)c1ccccc1C(c1ccc(O)cc1)c1ccc(O)cc1 | 2.3 | 21.1 | -2.4 | 18.6 | -9.4 | -0.5
Cc1ccc(S(=O)(=O)N2CCN(C(=O)CCc3nc4ccccc4c(=O)[nH]3)CC2)c(C)c1 | -0.2 | -3.1 | -6.6 | -3.5 | -1.1 | 0.6
CNS(=O)(=O)c1cccc2cccnc12 | -0.2 | 4.3 | -16.8 | 12.2 | . | 1.1
CCOc1ccc(S(=O)(=O)N(C)c2ccc(OCC(=O)Nc3nc(-c4cc(OC)ccc4OC)cs3)cc2)cc1 | 2.3 | -23.8 | -2.1 | 0.7 | -2.8 | 0.6
O=C(O)c1cccc(NS(=O)(=O)c2cccc(C(=O)Nc3ccccc3[N+](=O)[O-])c2)c1 | -8.6 | . | -8.1 | -10.6 | 17.7 | -1.0
CC(=O)N1CCN(CCN=CC2=C(O)CC(c3ccco3)CC2=O)CC1 (stereo not drawn) | 4.6 | -11.9 | -7.6 | -10.8 | 0.5 | 1.0
COc1ccccc1N(Cc1ccccc1)S(=O)(=O)c1cccc(C(=O)Nc2ccc(C)cn2)c1 | -10.9 | -1.2 | 21.1 | 25.3 | -10.1 | 2.0
COc1ccc(OC)c(/C=N/N(C)c2ccccc2)c1 | -24.5 | -8.0 | -25.8 | -3.1 | -7.8 | -0.3
CC(=O)NC(=S)Nc1ccc(NC(=O)c2cccnc2)cc1 | 1.0 | 0.9 | 1.4 | 6.0 | ? | -0.6
Cc1ccc(S(=O)(=O)Nc2cccc3c2O[C@H](CN(C)Cc2ccccc2)[C@@H](C)CN([C@H](C)CO)C3=O)cc1 | -0.4 | -2.7 | -18.3 | -18.6 | . | -0.6

Of the compounds above, these contain a Cl atom:
SMILES | Six1-Eya2 blk | CtBP-E1A inh | D2 PAM | TRPML1 blocker | TRPV1 PAM | TRPML1 agonist
CC1(O)CC(c2ccc(Cl)cc2)=NN1C(=O)c1ccc([N+](=O)[O-])cc1 (stereo not drawn) | -19.1 | . | -12.4 | 0.2 | -8.2 | 0.0
O=C(OCc1nc2ccsc2c(=O)[nH]1)c1ccc(Cl)nc1 | -1.0 | 0.5 | -10.2 | 5.6 | 13.1 | -0.6

Continuation.
SMILES | Six1-Eya2 blk | CtBP-E1A inh | D2 PAM | TRPML1 blocker | TRPV1 PAM | TRPML1 agonist
CCOC(=O)CC1C(=O)NCCN1C(=O)Nc1ccc(Cl)cc1 (stereo not drawn) | -8.1 | -0.1 | -5.0 | 14.7 | 11.4 | -0.9
CCOc1ccc(OCCOc2ncnc3ccccc23)cc1 | -7.9 | -1.0 | -2.5 | -24.3 | 29.8 | 1.4
COc1cccc(/C=N/NC(=S)Nc2cccc(S(=O)(=O)N(C)C)c2)c1 | -4.3 | -12.7 | -4.8 | 18.1 | 2.7 | 1.7
Cc1c(C(=O)N(Cc2nnc(-c3ccccc3Cl)o2)C2CC2)oc2ccccc12 | -4.5 | . | -5.1 | -11.0 | 6.8 | -0.7
Cn1ccc(C(=O)Nc2cccnc2Cl)n1 | 0.2 | 4.3 | 3.5 | -11.8 | 10.5 | -0.2
CCCC(=O)Nc1ccc(N2CCN(C(=O)CCC)CC2)cc1 | 0.0 | -0.1 | 1.3 | -0.2 | 0.7 | -0.6
CCOc1nc2c(c(=O)n(C)c(=O)n2C)n1Cc1ccccc1Cl | 1.8 | -6.8 | -1.9 | 10.0 | 7.9 | 5.7
COc1ccc2c3c(cccc13)C(=O)CC2 | 11.8 | 8.4 | -7.9 | -16.1 | -13.2 | 19.3
Cc1ccc2c(c1)N(C(=O)CCC(=O)NC1CCCCCC1)CC(C)O2 (stereo not drawn) | -1.7 | -1.6 | -5.1 | -6.5 | -6.5 | 0.4
COc1ccc(NC(C)C(=O)N/N=C/c2c(O)ccc3ccccc23)cc1 (stereo not drawn) | -16.3 | -10.0 | 4.9 | -0.6 | 2.5 | 1.2
O=C(CSc1nnc(NC(=O)c2ccco2)s1)Nc1ccc(F)cc1F | 2.5 | 3.0 | 3.2 | -17.2 | 16.5 | 0.4
CCOC(=O)c1cn2nc(Oc3ccc(C)cc3)ccc2n1 | 2.4 | -0.7 | 3.8 | -5.5 | -7.3 | 1.7
Cc1c(C(=O)N(C)C)c2ccc(Cl)cc2n1O | 0.0 | -1.3 | 8.0 | -2.1 | 1.8 | 2.0
CC(=O)c1cccc(NC(=O)COc2cc3oc(=O)c(CC(C)O)c(C)c3cc2Cl)c1 (stereo not drawn) | -5.1 | -15.0 | -9.2 | -10.4 | 0.4 | 2.5
COc1cc(OC)cc(C(=O)N2CCN(C3CCN(Cc4ccccc4)CC3)CC2)c1 | 2.3 | 7.1 | -10.8 | -12.7 | -4.7 | -0.7
O=C(NCc1ccc(F)cc1)C1CCCN(S(=O)(=O)c2cccnc2)C1 (stereo not drawn) | 9.1 | -1.2 | 10.0 | -13.9 | 8.5 | 0.2
O=C(Cc1ccc(Cl)cc1)N/N=C1\CCCc2ccccc21 | -0.6 | 13.1 | -19.3 | 5.0 | 7.8 | -0.2
O=C(CCc1ccccc1)Nc1sc2c(c1C(=O)O)CCCC2 | 7.9 | 2.2 | -3.3 | 18.1 | . | 0.3
Cc1ccccc1-c1cnc(C(O)c2ccccc2)[nH]1 (stereo not drawn) | -2.9 | 0.5 | -3.9 | . | . | -0.3
CC1CC(C)CN(C(=O)C(C)N2CCN(S(=O)(=O)c3ccc(Br)s3)CC2)C1 (stereo not drawn) | -13.2 | -0.4 | -17.9 | 19.1 | . | 0.1
Cc1ccc(OCc2cc(C(=O)N3CCCCCCC3)no2)cc1C | 10.8 | 2.1 | 1.6 | -9.3 | 10.2 | -0.4
CC(C)NC(=O)Cn1c(SCC(=O)NC2CCCC2)nc2ccccc21 | 8.3 | 18.4 | -3.3 | 4.1 | -0.5 | -1.3
O=C(Nc1ccc(F)c(Cl)c1)C1CCCCC1 | 0.9 | 11.1 | -15.5 | -2.9 | -17.7 | -0.7
Cn1cccc1/C=N/NC(=O)Cc1ccccc1 | -7.6 | -17.9 | -4.4 | 13.7 | -7.6 | 1.0

Some values from the results shown.
TRPML1 blocker with O=C(Nc1ccc(F)c(Cl)c1)C1CCCCC1 : -2.9
TRPML1 agonist with Cc1ccccc1-c1cnc(C(O)c2ccccc2)[nH]1 (stereo not drawn) : -0.3
TRPML1 agonist with Cc1c(C(=O)N(C)C)c2ccc(Cl)cc2n1O : 2.0

Next entries.
SMILES | Six1-Eya2 blk | CtBP-E1A inh | D2 PAM | TRPML1 blocker | TRPV1 PAM | TRPML1 agonist
CCN(CC)Cc1c(O)c(Cl)cc2c3c(c(=O)oc12)CCCC3 | -5.4 | -2.6 | -11.7 | -2.3 | 6.5 | ?
COc1cccc(NC(=O)N2CCCC2)c1 | 0.0 | . | 2.8 | -2.0 | 2.3 | -0.5
COc1cc(CN2C[C@@H](CO)O[C@@H](n3cnc4c(N5CCN(C)CC5)ncnc43)C2)cc(OC)c1OC | 2.6 | 1.5 | -5.7 | . | . | -0.5
Cc1cccc(C(=O)N2CCC(=O)N([C@H](COCc3cccc(Cl)c3)Cc3ccccc3)CC2)c1 | -7.2 | 1.8 | . | . | . | -0.5
CCOC(=O)C(CC)n1cnc2c(nnn2-c2ccc(OC)cc2)c1=O (stereo not drawn) | 3.8 | 4.8 | 14.1 | 1.2 | 2.9 | 0.5
S=c1[nH]nc(-c2ccccc2)c2ccccc12 | -9.1 | -6.2 | -10.8 | 16.1 | -1.4 | 1.4
NC(=O)C1(N2CCCCC2)CCN(C2CC(=O)N(Cc3cccs3)C2=O)CC1 (stereo not drawn) | 5.2 | 1.9 | -0.6 | 29.6 | -0.5 | -0.3
CN1CCN(C(=O)c2ccc(-n3cccn3)nc2)CC1 | -0.8 | 3.2 | -8.1 | 14.4 | -23.5 | -0.4
Cc1ccc(S(=O)(=O)N2CCN(C(=O)c3nn(C(C)C)c(=O)c4ccccc34)CC2)cc1C | -8.2 | 8.8 | -21.9 | 40.0 | 2.6 | 1.7
CCOc1ccc2nnnn2n1 | 1.4 | 6.0 | -1.7 | -1.3 | 10.6 | -0.5
CC(=O)c1cc(C)ccc1OC(=O)c1cccc2nc(C)oc12 | -1.4 | -2.1 | -25.8 | -3.3 | -24.3 | 1.3
COc1cc(Cn2ccnc2)c(OC)cc1Cn1ccnc1 | -1.5 | -12.8 | -3.2 | -12.8 | 1.7 | 0.5
O=C1/C(=C/c2cccc(Br)c2)SC(=S)N1/N=C/c1cc([N+](=O)[O-])ccc1O | -5.1 | -27.5 | -11.1 | . | -12.5 | .
CCOC(=O)CSc1nc(C)c2ccccc2n1 | 10.1 | -0.5 | -9.1 | -28.3 | 4.5 | -0.4
COCCNC(=S)Nc1ccc([N+](=O)[O-])cc1C | -0.3 | 1.6 | -2.5 | -8.7 | 17.4 | -0.7
CC1CCN(C(=O)COC(=O)c2cc3ccccc3oc2=O)CC1 | -2.9 | -1.6 | -3.5 | ? | . | -0.5
C/C(=N\NC(=S)NCCc1ccccc1)c1ccc(Cl)cc1Cl | -11.7 | 0.0 | -31.1 | -17.5 | 2.0 | 1.9
COc1ccc(-c2cc3nc(NCCOc4ccccc4)ccn3n2)cc1 | -3.5 | 0.5 | 0.6 | . | . | -0.7
COC(=O)c1c(NC(C)=O)sc(C(=O)N2CCOCC2)c1C | -0.3 | 9.9 | -3.0 | -2.1 | 22.9 | 0.0
COc1ccccc1NS(=O)(=O)c1ccc2oc(SC(C)C(=O)N3CCNC3=O)nc2c1 (stereo not drawn) | -1.7 | -22.0 | -3.6 | -4.1 | -6.0 | 1.0
O=C(NC(=S)Nc1nc2ccccc2s1)c1ccco1 | 2.8 | 2.6 | -7.2 | 1.4 | -24.2 | 1.1
COc1ccc(C(=O)c2ccc(Cl)cc2Cl)cc1 | 54.1 | 34.5 | -5.9 | 19.1 | 2.8 | 1.4
COc1ccc(CC(=O)NNC(=O)c2cccnc2)cc1OC | 3.9 | . | -5.8 | -5.4 | -0.4 | 0.3
Cn1c(CSCc2ccc(F)cc2)nnc1SCC(=O)Nc1cccc(C(=O)O)c1 | -7.2 | -1.2 | -9.4 | -6.7 | -7.3 | 0.7
